Assay outcomes from PubChem BioAssay.
HTT prom inh – inhibits huntingtin promoter activity; Potency, µM (highest dose often 57.5 µM), for the others: at the top dose activity change, negative = inhibition, usual class: inhibitors; HEK293 HTT promoter firefly luciferase reporter (activity 0% = vehicle and -100% = no light), 24 h; hit rate 0.93% among 48,000; active = well fitted inhibition curve with a large enough effect; inconclusive = small, poorly fitted or top-dose-only effect; inactive = no such curve, though single readings can be large or run the other way; note: nearly all actives have a fitted effect of over 50% in size
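HEK293 cells carrying firefly luciferase reporters were seeded at 2,500 per well in Opti-MEM and cultured for 24 h. They were then treated with compounds at up to 57.5 uM final for 24 h at 37 degrees C before Dual-Glo luminescence readout.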
PMP22 txn prim – modulators of PMP22 gene transcription in S16 Schwann cells; S16 Pmp22-F2sN Schwann cells (luciferase reporters placed in the Pmp22 gene), FLuc/NLuc coincidence luminescence, 24 h; Potency, µM (top dose mostly 57.5 µM), inactives show at the highest dose activity change, negative = inhibition, hits mostly inhibitors; hit rate 2% among 43,000; AID 1508649; active = clear falling dose curves in both reporters; inconclusive = both reporters move, but less clearly or upward; inactive = either reporter flat; the % is the NLuc reporter signal; note: % is set by controls: 0 for no effect and ±100 for the full control effect; some results filed as inactive show a strong effect at the top dose
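S16 Schwann cells carrying FLuc/NLuc coincidence reporter in the Pmp22 3' UTR treated with compound 24 h at 37C; FLuc then NLuc luminescence read sequentially by dual-luciferase reagents.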
Active calls of the source: *; ? = inconclusive; · = no result given; & = joins results of further samples; [ ] = another dose, or the depositor's remark. Potency is the fitted concentration of half-maximal effect.

Each structure is followed by: PMP22 txn prim | HTT prom inh
- CCc1ccc(CNC(=O)C(CC)n2nc(C)c3c(C)n(-c4ccccc4)nc3c2=O)cc1 (stereo unspecified)
    ? | ?
- Fc1ccccc1Nc1ncnc2c1nc1n2CCCCC1
    -12% | 23%
- CCNc1nc(NC(C)(C)C)nc(Oc2ccc(=O)n(C)n2)n1
    -24% | 10%
- COc1ccc(C(=O)Nc2ccc(N3CCOCC3)c(C(F)(F)F)c2)cc1OC
    ? | -39%
- COc1cccc(-n2c(=O)c3c(C)c(C)sc3n(CC(=O)NCCc3ccc(OC)c(OC)c3)c2=O)c1
    -7% | -2%
- COc1cc(C2NC(=O)N(C)C3=C2C(=O)N(c2ccccc2)C3)ccc1O (stereo unspecified)
    -18% | 2%
- Cc1cc(-c2ccccc2)n2nc(-c3cccc(Br)c3)cc2n1
    -2% | -19%
- Cc1ccccc1C(=O)N1CC/C(=N\OS(=O)(=O)O)c2ccc(Cl)cc21
    · | -3%
- CCOc1ccc(CCNC(=O)CN2C(=O)COc3ccc(S(=O)(=O)N4CCCCCC4)cc32)cc1
    ? | ?
- CCCCn1c(CNC(=O)c2ccc(OC)cc2)nnc1SCC(=O)Nc1ccccc1
    -19% | -14%
- COC(=O)c1ccc(C2c3c(oc4cc(C)c(C)cc4c3=O)C(=O)N2c2ccccn2)cc1 (stereo unspecified)
    1% | -5%
- O=C(Nc1cc(C(F)(F)F)ccc1Cl)c1cc(-c2ccc3c(c2)OCCO3)on1
    -38% | -7%
- COc1ccc(S(=O)(=O)N2CCC(C(=O)Nc3ccc(Oc4ccccc4)cc3)CC2)cc1OC
    -27% | ?
- Cc1cccc(-c2nc(SCC(=O)Nc3cccc(C(F)(F)F)c3)n3[nH]c(=O)cc3n2)c1
    -2% | -24%
- CCN(C(=O)CCn1cnc2onc(-c3ccc(F)cc3)c2c1=O)c1ccc(OC)cc1
    ? | -19%
- CC(=O)OC1C(C)OC(Oc2c(-c3ccc(O)cc3)oc3cc(O)cc(O)c3c2=O)C(O)C1OC(C)=O (stereo unspecified)
    · | 7%
- O=C(c1ccccc1F)N1c2nc(-c3ccco3)nn2C2(CCCCC2)[C@@H]2CCCC[C@@H]21
    ? | -34%
- Cn1c(=O)c2c(SCC(=O)N3CCc4ccccc43)nc(-c3ccc(Cl)cc3)nc2n(C)c1=O
    5% | -7%
- COC(=O)c1c(-c2cccs2)csc1NC(=O)c1cc(OC)c(OC)c(OC)c1
    -5% | -22%
- CCN(CC)S(=O)(=O)c1ccc2c(c1)N(CC(=O)N1CCN(c3cccc(C(F)(F)F)c3)CC1)C(=O)CO2
    ? | ?
- Cc1ccc(C)n1-c1nnc(N2CCCC(C(=O)NCc3cccc(F)c3)C2)s1 (stereo unspecified)
    15µM* | -18%
- CCOc1ccc(/C=C(\C#N)c2nc3ccccc3c(=O)[nH]2)cc1OC
    ? | 5%
- CN1C(=O)c2ccccc2Sc2ccc(NC(=O)NCc3ccccc3Br)cc21
    -21% | ?
- CCOC(=O)c1cc(-c2ccccc2)n(CC(=O)NCc2ccc(C)cc2)c1C
    -24% | 1%
- Cc1ccc(NC(=O)Cn2c(=O)n(Cc3ccccc3)c(=O)c3c(C)c(C)sc32)c(C)c1
    ? | -6%
- COc1cccc(NC(=O)CSc2nc3ccc(NC(=O)c4ccco4)cc3s2)c1
    ? | -7%
- Cc1nc(N)c(S(=O)(=O)c2ccccc2)c(Nc2ccc(Br)cc2)n1
    -27% | 5%
- CCN1CCN(c2oc(-c3ccc(COc4ccccc4C)o3)nc2C#N)CC1
    ? | ?
- CCc1ccc2nc(N(Cc3cccnc3)C(=O)c3cccs3)sc2c1
    -98% | ?
- Cc1ccc(CNC(=O)CCCn2c(=O)c3ccccc3n(CC(=O)C(C)(C)C)c2=O)cc1
    ? | -5%
- CC1(C)CC(=O)c2c(C(F)(F)F)nn(-c3ccc(C(N)=O)c(NC4CCC(OC(=O)CN)CC4)c3)c2C1 (stereo unspecified)
    · | ?
- COC(=O)c1ccc(C2CC(=O)Nc3c2c(C)nn3-c2nc(C)cc(C)n2)cc1 (stereo unspecified)
    -4% | -18%
- CCN(CC)CCCNC(=O)c1ccc(Cn2c(=O)[nH]c3cc(OC)c(OC)cc3c2=O)cc1
    -27% | 2%
- Cc1ccc(-n2nc(CO)c(C(=O)NCc3cccs3)n2)cc1
    -20% | -26%
- Cc1cc(C)n2nc(NCc3ccccc3Cl)nc2n1
    -9% | 6%
- CCOC(=O)c1cccc(NS(=O)(=O)c2cn(C)c(C)n2)c1
    -21% | -1%
- O=C(Nc1cccc(NC(=O)c2ccc(Br)o2)c1)c1ccccc1
    -15% | 13%
- O=C(O)CCSc1nnc(-c2ccc(Cl)cc2Cl)o1
    ? | -85%
- Cc1csc2nc(COC(=O)c3ccc(NC(=O)c4ccccc4Br)cc3)cc(=O)n12
    ? | ?
- Cc1ccc(C)c(NC(=O)N2CCN(C)c3ncccc32)c1
    -27% | ?
- C[C@H](CN1CCCC1)C(=O)c1ccc(C(F)(F)F)cc1
    · | -4%
- Cc1cc(C)c(/C=C/c2onc(C)c2S(=O)(=O)N2CCC(C(=O)N3CCN(c4ccc(Cl)cc4)CC3)CC2)c(C)c1
    -56% | -9%
- CC(=O)C1=C(c2ccc(Cl)cc2)N(C(C)=O)n2c(nnc2C2CCCCC2)S1
    -1% | -39%
- COc1ccc(N2CCN(C(CNC(=O)C(=O)NCCc3ccccc3)c3cccnc3)CC2)cc1 (stereo unspecified)
    ? | ?
- CC(=O)Nc1ccc(NC(=O)CSc2nccn2C)cc1
    2% | -16%
- Cc1cccc(OCC(=O)Nc2ccc(-c3nc4cc(C)ccc4o3)c(O)c2)c1
    ? | 110%[activator]
- COc1ccc(-n2c(=O)c3ccc(C(=O)NCc4ccc(C)cc4)cc3n(Cc3ccc(C)cc3)c2=O)cc1
    10% | -16%
- Cc1ccc(NC(=O)c2oc3ccc(S(=O)(=O)N4CCC5(CC4)OCCO5)cc3c2C)cc1C
    -28% | -9%
- O=C(CCS(=O)(=O)c1cc(Br)cc2c1N(C(=O)C1CC1)CC2)Nc1ccc(Br)cc1F
    9% | -8%
- COc1ccc(N(CC(=O)NCCc2cccc(C)c2)S(=O)(=O)c2c(C)nn(C)c2C)cc1
    ? | -15%
- COc1cc(OC)c(NC2(c3ccccc3)C(=O)c3ccccc3C2=O)cc1Cl
    11% | -5%
- O=C(COc1ccccc1Cl)NCC1(N2CCOCC2)CCCCC1
    ? | ?
- CN(C1CCCCC1)S(=O)(=O)c1ccc2c(c1)c(=O)c(C(=O)NCc1ccc(F)cc1)cn2C
    ? | -7%
- Cc1ccc(OCCSc2nnc(-c3cccs3)o2)cc1Cl
    11% | -20%[11.5 µM]
- CCCn1c(=O)c2sccc2n2c(CCCC(=O)NC3CCC(C)CC3)nnc12 (stereo unspecified)
    -8% | -12%
- Cc1ccc(-c2nc(S(=O)(=O)c3ccc(Cl)cc3)c(N3CCCCC3)o2)cc1
    ? | ?
- NCCCCNCCCN
    · | 107%[activator]
- COCC(=O)O[C@]1(CCN(C)CCCc2nc3ccccc3[nH]2)CCc2cc(F)ccc2[C@@H]1C(C)C
    · | -20%
- CCOC(=O)c1cnc2ccc(C(=O)OC)cc2c1Nc1ccc(N2CCOCC2)cc1
    ? | ?
- Cc1cccc(-c2nc(CN3CCCC(C(=O)NCCc4ccc(Cl)cc4)C3)c(C)o2)c1 (stereo unspecified)
    ? | 32µM*

More records follow.
Each structure is followed by: PMP22 txn prim | HTT prom inh
- CC(=O)c1cccc(Nc2cc(C)nc3nc(-c4ccccc4C)nn23)c1
    -8% | 1%
- Clc1cccc(CNc2ncnc3c2nc2n3CCCC2)c1
    -21% | -8%
- CCOC(=O)c1c(NC(=O)CSc2cn(CCNC(=O)c3ccc(OCC)cc3)c3ccccc23)sc2c1CCCC2
    -20% | ?
- COc1ccc(Cl)cc1S(=O)(=O)N1CCC(c2ccncc2)CC1
    -17% | ?
- CC(=O)c1ccc(N2C(=O)N(Cc3ccc(F)cc3)c3ccccc3S2(=O)=O)cc1
    -8% | ?
- CCOc1ccc(CCNC(=O)c2cnc3sc(N4CCOCC4)nn3c2=O)cc1
    6% | 2%
- Cc1ccn2c(Nc3ccccc3)c(-c3c[nH]c4ccccc34)nc2c1
    ? | 54%[activator]
- Cc1c(NC(=O)c2ccc(-c3ccc(F)cc3)o2)cccc1-c1nc2ncccc2o1
    ? | 3%
- CCOc1ccc(C(=O)N2CCN(Cc3cc(=O)n4nc(-c5ccccc5Cl)sc4n3)CC2)cc1
    ? | -9%
- Cc1ccc(CNC(=O)CCc2c(C)nc3nc(C)nn3c2C)cc1
    1% | -10%
- Cc1cn2c(=O)c(S(=O)(=O)NCCc3ccccc3)c(C)nc2s1
    6% | -5%
- COc1ccc(Cl)cc1NC(=O)CCc1c(C)nc2c(c1C)c(=O)n(C)c(=O)n2C
    0% | -8%
- O=C(NCc1cccc(F)c1)c1ccc2nc(CCc3ccccc3)oc2c1
    ? | 4%
- COc1cc2nc(SCc3ccc(C)cc3)n3nc(CCn4nc(C)cc4C)nc3c2cc1OC
    3% | -6%
- CNS(=O)(=O)c1cn(CC(=O)Nc2ccc(OC)c(Cl)c2)cc1S(=O)(=O)NC
    0% | 3%
- Cc1ccc(S(=O)(=O)n2nc(C)c(S(=O)(=O)N3CCCCCC3)c2C)cc1C
    -4% | -4%
- Cc1ccc(C)c(NC(=O)CSc2ncc3c(n2)-c2ccc(Cl)cc2N(C)S3(=O)=O)c1
    ? | -1%
- CCNC(=O)CC1C(=O)N(c2ccccc2)C(=O)N1Cc1ccc(F)cc1 (stereo unspecified)
    -1% | -8%
- COc1cccc(CCNC(=O)Cn2c(-c3cccs3)cc3ccccc32)c1
    ? | -27%
- COc1ccc(OC)c(NC(=O)[C@H](CSCc2ccccc2)N2Cc3ccccc3C2=O)c1
    -17% | ?
- Cc1cc(F)ccc1S(=O)(=O)Nc1ccc2oc3c(c2c1)CC(C)CC3 (stereo unspecified)
    ? | ?
- COc1ccc(OC)c(-c2nnc3n(Cc4ccc(C)cc4)c(=O)c4ccccc4n23)c1
    ? | ?
- CCC1=Nc2cc(C(=O)NCCc3ccccc3)ccc2Sc2ccc(Cl)cc21
    -51% | -21%
- CCOc1ccc(CCNC(=O)c2c(C)oc3ncn(C)c(=O)c23)cc1
    6% | 6%
- c1coc(-c2nc3n(n2)C2(CCCCC2)[C@@H]2CCCC[C@@H]2N3)c1
    ? | -28%
- CCC1CN(C(=O)C2CCN(S(=O)(=O)c3c(C)noc3/C=C/c3ccccc3F)CC2)c2cc(Cl)ccc2O1 (stereo unspecified)
    -10% | -18%
- CCOC(=O)COc1ccc([N+](=O)[O-])cc1-c1ccnc2cc(-c3ccc(Cl)cc3)nn12
    ? | -5%
- COc1cc2nc(-c3ccc(N4CCN(C)CC4)cc3)nc(NCCN3CCOCC3)c2cc1OC
    · | ?
- CC(=O)c1cccc(-n2c(=O)c3c4c(sc3n(CC(=O)Nc3ccccc3F)c2=O)CN(C(C)=O)CC4)c1
    -26% | 2%
- CCC1CCCCN1C(=O)CSc1n[nH]c(-c2ccccc2Cl)n1 (stereo unspecified)
    -13% | 22%
- Cc1nc2sc(C(=O)N(C)Cc3ccccc3)c(NC(=O)c3ccccc3)c2c(C)c1Cl
    17% | 4%
- O=C(CSc1nc2c([nH]c3ccccc32)c(=O)n1-c1ccc(Cl)cc1)N1CCCCCC1
    ? | -6%
- COc1ccc(CC(=O)NCCc2csc(-c3ccc(Cl)cc3)n2)cc1
    ? | ?
- CN(C(=O)Cn1c(=O)n(Cc2ccc(C(=O)NCc3ccc4c(c3)OCO4)cc2)c(=O)c2ccccc21)c1ccccc1
    -24% | -22%
- COc1ccc(CNC(=O)Cn2ccc3cc(S(=O)(=O)N4CCCCC4)ccc32)cc1OC
    -24% | -16%
- COc1ccc(-c2nc(CCNC(=O)Cc3ccc(F)cc3)cs2)cc1
    2% | -24%
- CC(S)C(=O)NCC(=O)O (stereo unspecified)
    · | -1%&0%
- CCCCNc1sc(S(=O)(=O)CC)nc1S(=O)(=O)c1ccc(C)cc1
    0% | -20%
- CCOc1ccc(CCNCc2c(C(=O)O)n(Cc3ccc(C)cc3)c3cc(OC)ccc23)cc1
    ? | ?
- Cn1cc[nH]c1=S
    · | 12%
- Cc1cc2c(cc1S(=O)(=O)NCc1ccccc1)OCC(=O)N2
    -24% | -25%
- COc1cccc(OCc2cc(=O)n3c(-c4ccccc4)csc3n2)c1
    ? | 11%
- CCc1ccc(NC(=O)c2cc(S(=O)(=O)N3CCCCC3)c[nH]2)cc1
    -26% | 1%
- O=C(NCCc1csc(-c2cccnc2)n1)c1ccccc1
    -27% | 12%
